SARS PLpro yeast = blocks SARS-CoV papain-like protease in a yeast assay; S. cerevisiae expressing SARS-CoV PLpro, growth rescue; control for the full effect not named in the record; Potency, µM (top dose mostly 32.9 µM), for the others: at the highest dose activity, positive = growth rescue; 0.19% of 330,000 active; active means well fitted rising curve with a large enough effect; inconclusive means small, poorly fitted or top-dose-only effect; inactive means no such curve, though single readings can be large or run the other way; also: 0% is about no effect; nearly all actives have a fitted effect of over 55% in size; growth read by luminescence after 48 h
Marburg entry inh = inhibitors of Marburg virus binding or cell entry. Marburg virus pseudotyped entry inhibition, cell reporter; control for the full effect not named in the record; about a third of the inactives were read at about 46 µM. Potency, µM (highest dose often 37.8 µM), for the others: top-dose activity change, negative = inhibition, actives largely listed as inhibitors. 1.8% of 300,000 active. AID 540276; active = well fitted inhibition curve with a large enough effect; inconclusive = small, poorly fitted or top-dose-only effect, or effect the other way; inactive = flat fitted curve, though single readings scatter; tested in HEK293 cells; about a fifth of its hits are not listed in these tables; also: % is scaled to controls: 0 for no effect and ±100 for the full control effect; luciferase read-out
Lassa entry inh = inhibitors of Lassa virus binding or cell entry; Potency, µM (series often up to 37.9 µM), inactives show at the top dose activity change, negative = inhibition, usual class: inhibitors; 1.2% of 300,000 active; AID 540256; Lassa virus pseudotype entry inhibition, cell reporter; control for the full effect not named in the record; active means well fitted inhibition curve with a large enough effect; inconclusive means small, poorly fitted or top-dose-only effect, or effect the other way; inactive means flat fitted curve, though single readings scatter; tested in HEK293 cells; also: % is scaled to controls: 0 for no effect and ±100 for the full control effect; nearly all actives have a fitted effect of over 50% in size; luciferase read-out
Cruzain inh Det = blocks cruzain activity in presence of Triton detergent; P25779; purified cruzain, Z-FR-AMC fluorescence, 0.01% Triton; Potency, µM, for the others: max response, negative = inhibition, actives largely listed as inhibitors; 0.43% of 200,000 active; AID 1478;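 also: plate controls were neutral wells for no effect and buffer without enzyme for full effect; nearly all actives have a fitted effect of over 40% in size; top concentration of the series not given in the record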
Target sequence (P25779 123-467 limits assumed): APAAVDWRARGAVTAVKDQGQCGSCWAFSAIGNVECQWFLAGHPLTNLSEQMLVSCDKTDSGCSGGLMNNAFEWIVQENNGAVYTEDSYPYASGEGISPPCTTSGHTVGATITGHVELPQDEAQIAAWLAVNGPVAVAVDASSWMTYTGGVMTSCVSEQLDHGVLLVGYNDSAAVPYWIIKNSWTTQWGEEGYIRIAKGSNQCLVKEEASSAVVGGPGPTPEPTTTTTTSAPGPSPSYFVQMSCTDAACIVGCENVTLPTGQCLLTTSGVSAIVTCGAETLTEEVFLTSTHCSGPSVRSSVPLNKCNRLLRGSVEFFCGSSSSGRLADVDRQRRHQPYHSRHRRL
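Z-FR-AMC hydrolysis (2 uM substrate) by cruzain (1.5 nM) monitored kinetically at ex 360/em 450 nm after 15 min room-temperature compound exposure; 0.01% Triton X-100, pH 5.5, 5 mM DTT.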
StopGo reporter = FMDV 2A StopGo reporter, luciferase signal; human cells with a luciferase reporter of 2A StopGo recoding; control for the full effect not named in the record; 1.2% of 410,000 active; AID 1159524; Potency, µM (top dose mostly 57.9 µM), inactives show top-dose signal change, negative = less light; active = well fitted falling curve with a large enough effect; inconclusive = small, poorly fitted or top-dose-only effect; inactive = no such curve, though single readings can be large or run the other way; tested in HEK293T cells; also: % is scaled to controls: 0 for no effect and ±100 for the full control effect; nearly all actives have a fitted effect of over 45% in size; luciferase light after 4 h
NS1 inh = blocks influenza NS1 protein function | S. cerevisiae slowed by influenza A NS1, growth recovery by OD600 | Potency, µM (series often up to 46.1 µM), for inactives: at the top dose activity, positive = more growth | 0.4% of 270,000 active | AID 2326; active means well fitted rising curve with a large enough effect; inconclusive means small, poorly fitted or top-dose-only effect; inactive means no such curve, though single readings can be large or run the other way; also: nearly all actives have a fitted effect of over 50% in size
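Read-out: OD600 growth recovery of NS1-expressing budding yeast. Cells grown overnight at 30C in -URA glucose medium, washed, resuspended and diluted 1:100 in 2% galactose assay medium, pH 6.0. Same strain lacking NS1 served as positive control.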
RE007 growth inh = less growth of the S. pombe RE007 Vpr strain; S. pombe RE007 Vpr strain, BacTiter-Glo ATP luminescence, 24 h; control for the full effect not named in the record; Potency, µM (doses to about 92.2 µM), for inactives: top-dose activity change, negative = less growth; 0.21% of 360,000 active; active = well fitted falling curve with a large enough effect; inconclusive = small, poorly fitted or top-dose-only effect; inactive = no such curve, though single readings can be large or run the other way;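 also: % is scaled to controls: 0 for no effect and ±100 for the full control effect; nearly all actives have a fitted effect of over 50% in size; the assay follows cell death caused by Vpr and the record does not say whether a fall means rescue or toxicity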
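Fission yeast strain RE007, carrying one chromosomally integrated HIV-1 vpr copy, was seeded at OD 0.01 in PMG+AL medium with 23 nL pinned compound. After 24 h at 30 °C and 99% humidity, viability was read by BacTiter-Glo luminescence.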
Cruzain inh noDet = inhibitors of Trypanosoma cruzi cruzain without detergent; P25779; Potency, µM, for inactives: max response, negative = inhibition, most hits filed as inhibitors; purified cruzain, Z-FR-AMC fluorescence, no detergent; 2.3% of 200,000 active;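 also: plate controls were enzyme without inhibitor for no effect and buffer without enzyme for full effect; nearly all actives have a fitted effect of over 40% in size; top concentration of the series not given in the record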
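Purified cruzain at 1.5 nM, pre-incubated 15 min with compound at room temperature in 100 mM sodium acetate pH 5.5, 5 mM DTT, 0.00005% Triton X-100. Reaction started with 2 uM Z-FR-AMC; AMC fluorescence increase over 60 s gives rate.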
Starred values were filed as active, the others as inactive; ? = inconclusive; / = not tested or not shown; & = joins results of further samples; [ ] = another dose, or the depositor's remark. Unless noted, calls follow the shape of the dose curve; as a rule, active = well fitted curve in the direction sought with a large enough effect; inconclusive = small, poorly fitted or top-dose-only effect, or another doubt; inactive = no such curve, though single readings can be large; an effect the other way counts as inactive or inconclusive. Potency is read from the fitted curve at half-maximal effect.

#	Structure	SARS PLpro yeast	Marburg entry inh	Lassa entry inh	Cruzain inh Det	StopGo reporter	NS1 inh	RE007 growth inh	Cruzain inh noDet
1	O=CNc1ccccc1Oc1ccccc1	14%	7%	-3%	0.5%	-19%	-7%	6%	-3%
2	COc1ccc(NC(=O)/C(=C/c2cccnc2)NC(=O)c2cccs2)cc1	-1%	4%	11%	-0.6%	-20%	-5%	7%	-4%
3	CCOC(=O)CSc1nnc(CCCCCN2C(=O)c3cccc4cccc(c34)C2=O)o1	1%	-15%	-1%	-7.6%	-13%	-1%	-7%	?
4	CCCNc1nc2c(c(=O)n(C)c(=O)n2C)n1CCCc1ccccc1	1%	/	/	/	?	-8%	-4%	/
5	CC1CC(C)CN(C(=O)COC(=O)C2CCN(S(=O)(=O)c3ccc4c(c3)OCCO4)CC2)C1 (configuration not stated)	26%	?	?	/	-14%	/	6%	/
6	COc1ccccc1NC(=O)C1=C(C)NC2=C(C(=O)CCC2)C1c1ccc(C)o1 (configuration not stated)	2%	-7%	-14%	-0.9%	/	4%	8%	-3%
7	Cn1ncc(Br)c1C(=O)NC12CC3CC(CC(C3)C1)C2	7%	9%	-3%	-1.9%	0%	-6%	-3%	12%
8	COc1cc(NC(=O)CCc2c(C)nc3c4c(C)cc(C)nc4nn3c2C)cc(OC)c1	/	-4%[46.1 µM]	9%[46.1 µM]	-12%	?	/	/	?
9	Cc1ccc(C(=O)Nn2cnc3scc(-c4cccs4)c3c2=O)c(O)c1	8%	13%	12%	-4.8%	-24%	8%	13%	1%
10	COc1ccc(OC)c(NC(=O)c2cc(-c3ccc(C)cc3O)n[nH]2)c1	4%	5%	-6%	-1.7%	8%	?	1%	-25%
11	O=C(Oc1ccc2c(c1)OCO2)c1cc2c(s1)CCC2	1%	-28%	-22%	-6.6%	6%	-7%	-16%	-10%
12	Cc1cc([N+](=O)[O-])ccc1NC(=O)Cc1ccc(F)cc1	-6%	?	-6%	-4.3%	-18%	5%	13%	-16%
13	CC(C)NCC(=O)C12CC3CC(CC(C3)C1)C2	-1%	/	/	/	-20%	-2%	15%	/
14	Cc1ccc(NC(=O)Nc2cccc([N+](=O)[O-])c2)cc1F	-13%	?	?	-12%	-2%	-32%	1%	-2%
15	COc1ccc(OC)c(S(=O)(=O)N2CCCC2C(=O)NC(C)c2ccccc2)c1 (configuration not stated)	-3%	/	/	/	-13%	5%	18%	/
16	Cc1ccc(C(=O)OCC(=O)N2CCCCCC2)cc1S(=O)(=O)N1CCOCC1	-2%	4%	2%	/	-4%	/	-19%	/
17	CCSc1ccccc1C(=O)Nc1ccc(-c2nc3ccccc3s2)c(O)c1	/	/	?	1.1%	53%[activator]	/	/	7.9µM*
18	CC(=O)Nc1ccc(NC(=O)c2cc([N+](=O)[O-])cc([N+](=O)[O-])c2)cc1	-1%	5%[46.1 µM]	-1%[46.1 µM]	/	-11%	25%	14%	/
19	COc1ccc(CC(=O)O/N=C(\N)c2ccncc2)cc1	0%	-28%[46.1 µM]	0%[46.1 µM]	/	4%	3%	-8%	/
20	Cc1ccc(/C=C2\Oc3c(ccc(O)c3CN3CCN(CCO)CC3)C2=O)cc1	4%	?	1%	/	-12%	/	-1%	/
21	COc1ccc(NC(=O)Cn2cc(C#N)c3ccccc32)cc1	-1%	?	-3%	/	-8%	/	23%	/
22	COc1ccc(C(=O)Nc2ccc(S(=O)(=O)Nc3nccc(C)n3)cc2)cc1OC	5%	1%	1%	-1.4%	25%	14%	-21%	8%
23	N#CC1=C(N)NC(SCc2ccc(F)cc2)=C(C#N)C12CCCCC2	-8%	7.9µM*	?	-17%	-24%	-18%	12%	?
24	Cc1cccc(OCC(=O)NNC(=O)CCN2CCN(c3ccccc3)CC2)c1C	5%	-38%[46.1 µM]	-18%[46.1 µM]	/	-20%	/	-22%	/
25	COCCNC(=O)C(c1ccncc1)N(Cc1ccccc1)C(=O)Cn1nnc2ccccc21 (configuration not stated)	-2%	8%[46.1 µM]	29%[46.1 µM]	/	19%	/	-15%	/
26	COc1cc(C=CC(=O)c2cc(OC)c(OC)c(OC)c2)cc(OC)c1OC	/	?	7.9µM*	/	13µM*	/	-16%	/
27	Cc1cccc(/C(N)=N/OC(=O)c2ccncc2)c1	-5%	-27%[46.1 µM]	?	/	12%	-9%	-5%	/
28	CC(C)C(CCNCc1ccccn1)c1ccc(Cl)cc1 (configuration not stated)	-1%	?	-29%[46.1 µM]	/	-12%	0%	-6%	/
29	CCOc1ccccc1NC(=S)N1CCCCCC1	?	/	/	/	4%	-1%	11%	/
30	COc1ccc(N2CC(C(=O)Nc3ccc(NC(C)=O)cc3)CC2=O)cc1 (configuration not stated)	/	/	2%[46.1 µM]	0.3%	-3%	/	/	20%
31	O=C(CCc1ccccc1)NNC(=S)NCCc1ccccc1	-3%	/	/	/	-2%	24%	4%	/
32	COc1ccc(/C=C2\SC(=S)N(CCCCCC(=O)Nc3cc(C)on3)C2=O)cc1OC	-1%	-4%	?	/	?	3%	5%	/
33	CCCS(=O)(=O)N1CCC(C(=O)N2CCC(Cc3ccccc3)CC2)CC1	-3%	3%	?	2.9%	?	-5%	-11%	15%
34	CCc1ccc(NC(=O)Nc2ccon2)cc1	-2%	/	/	/	76%[activator]	-22%	8%	/
35	CC(C)CC(OC(=O)c1ccco1)C(=O)NCC1CCCO1 (configuration not stated)	-1%	5%	20%	4.1%	-11%	1%	-11%	16%
36	N#CCN(N=Nc1ccccc1)c1ccccc1	7%	/	/	/	24%	-5%	-7%	/
37	CC(=O)N1[C@H](Cc2ccccc2)C=C[C@]1(C)C(=O)NCc1ccccn1	7%	-42%	0%	0.1%&2.0%	-6%	20%	-10%	1%&-4%
38	Cc1ccc(/C=N/NC(=O)c2ccncc2)o1	24%	14%	4%	-11%	-5%	10%	0%	12%
39	Cc1cc(Nc2ccc(Cl)cc2)n(-c2ccccc2)n1	-17%	-15%	-1%	-12%	?	0%	30%	-3%
40	CCOc1ccccc1CN(CCc1ccc2c(c1)OCO2)Cc1ccccn1	22%	-29%	-19%	4.1%	?	-10%	-1%	2%
41	O=C(Nc1cccc(-c2cscn2)c1)C1CCN(Cc2ccsc2)CC1	2%	?	6%[46.1 µM]	/	-2%	6%	2%	/
42	O=C(C1CCCN(S(=O)(=O)c2cccs2)C1)N1CCN(c2cccc(Cl)c2)CC1 (configuration not stated)	/	?	?	-7.5%	?	/	/	-16%
43	CN1C(=O)c2ccccc2N(C)C1c1ccc2c(c1)OCO2 (configuration not stated)	9%	-3%	3%	0.3%	0%	-25%	-13%	5%
44	Cc1cccc(OCC(=O)N/N=C/c2ccc(N(C)C)cc2)c1	-1%	-3%	?	/	1%	-39%	-7%	/
45	CC(Oc1ccccc1)C(=O)NNS(=O)(=O)c1ccc([N+](=O)[O-])cc1 (configuration not stated)	?	7%	-1%	-0.5%	2%	25%	15%	9%
46	COc1ccc(-c2c(C)oc3ccc(C)cc23)cc1	-1%	-20%	0%	-9.5%	-8%	2%	-8%	-9%
47	O=[N+]([O-])/C=C/c1ccc2c(ccn2Cc2ccccc2)c1	-10%	/	/	/	?	-54%	?	/
48	O=C(Cc1ccccc1F)Nc1ccc(S(=O)(=O)Nc2ncccn2)cc1	0%	0%[46.1 µM]	1%[46.1 µM]	/	-3%	11%	-6%	/
49	Cc1ccc(-n2c(O)c(C=NC3CCS(=O)(=O)C3)c3ccccc3c2=O)cc1 (configuration not stated)	5%	11%	13%	0.5%	-6%	9%	-3%	-2%
50	Cc1cc(C)n(-c2c(F)c(F)c(COC(=O)c3ccccc3)c(F)c2F)n1	-28%	-5%	1%	2.5%	-25%	-57%	-1%	3%

(list continues)
#	Structure	SARS PLpro yeast	Marburg entry inh	Lassa entry inh	Cruzain inh Det	StopGo reporter	NS1 inh	RE007 growth inh	Cruzain inh noDet
51	Cc1ccc(Cc2nc3ccccc3nc2SCC(=O)NCc2ccccc2Cl)cc1	/	/	2%[46.1 µM]	1.5%	11%	/	/	-19%
52	O=C(CCN1CCCO1)N1CCCC(N2CCN(c3ccccc3F)CC2)C1 (configuration not stated)	3%	/	/	/	1%	25%	-15%	/
53	O=C(OCC(=O)N1CCN(c2ccccc2)CC1)c1ccccc1[N+](=O)[O-]	-1%	?	-6%	/	-10%	/	-16%	/
54	CCCCCn1c(=O)[nH]c2cc(C(=O)N3CCN(C(=O)OCC)CC3)ccc2c1=O	18%	-22%[46.1 µM]	2%[46.1 µM]	/	-21%	14%	-12%	/
55	Cn1nc(-c2ccccc2)c(C(=O)Nc2ccc(C(F)(F)F)cc2)c1Cl	-3%	10%	-15%	6.1%	/	4%	4%	?
56	CCOc1ccc(C(c2c(O)cc(C)n(CCOC)c2=O)N2CCN(c3ccc(F)cc3)CC2)cc1 (configuration not stated)	/	/	-11%[46.1 µM]	0.7%	0%	/	/	11%
57	COCCCNC(=O)c1cccc(OC)c1OC	3%	14%	-4%	1.8%	-5%	-9%	-7%	1%
58	O=C(CCCCCn1c(=O)[nH]c2ccccc2c1=O)NCc1cccc(Cl)c1	/	/	-16%[46.1 µM]	0.7%	13%	/	/	9%
59	Cc1ccc(NC(=O)CCS(=O)(=O)c2cccc3nonc23)c(C)c1	/	/	20%[46.1 µM]	-0.5%	3%	/	/	-13%
60	COc1ccc(-c2cn3c(C)c(C(=O)NCCN4CCOCC4)sc3n2)cc1	-4%	6%	3%	-9.4%	-5%	13%	3%	3%
61	O=C(C[n+]1cccc(CNC(=O)c2ccc(OC(F)F)cc2)c1)Nc1ccc(SC(F)F)cc1	-1%	?	0%	-2.7%	-7%	6%	-3%	-4%
62	CC(=O)NCCNC(=O)c1ccc(NC2=NC3CS(=O)(=O)CC3S2)cc1 (configuration not stated)	-5%	3%[46.1 µM]	-4%	/	3%	4%	-9%	/
63	Cc1cccc(-n2nnc(-c3nc(-c4cccs4)no3)c2N)c1C	/	/	-6%[46.1 µM]	-0.5%	35%[activator]	/	/	2%
64	COc1cc(NS(=O)(=O)c2ccc(NC(=O)C(C)Oc3ccc(Cl)cc3Cl)cc2)nc(OC)n1 (configuration not stated)	/	-22%[46.1 µM]	-12%[46.1 µM]	-19%	11%	/	/	16%

Source: PubChem BioAssay
